eIF4H FP inh = human eIF4H binding inhibitors, primary screen, translation initiation inhibitor project, biochemical, uHTS, fluorescence polarization | Eukaryotic translation initiation factor 4H (Homo sapiens), Q15056 | eIF4H fluorescence polarization binding assay | inhibition, % at 35 µM | hit rate 0.94% among 290,000;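 active = 50% or more with normal probe brightness, or confirmed in later tests; inconclusive = above 50% with abnormal brightness, or retests that disagree; inactive = below 50% or failed in later tests; about a fifth of its hits are not listed in these tables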;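 note: calls also rest on retests at 20 µM and on dose response follow-up; 0% = protein and probe with vehicle and 100% = probe without protein; strong numbers were not always called active; many hits fall short of the cut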
HIV Env fusion = inhibitors of HIV-1 Env-driven cell-cell fusion, primary screen, HeLa-JRFL effector, CEM21 target cells, luciferase | inhibition, % at 12.3 µM | hit rate 1.1% among 360,000;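 active = mean replicate inhibition score of at least 50 and every replicate individually at or above 50; inconclusive = only one of the two criteria met; inactive = mean below 50 and not all replicates reaching 50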;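 note: 0% = plate neutral controls and 100% = maraviroc near 300 nM; one replicate is shown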
CSC inhib = cancer stem cell viability inhibitors, primary screen, luminescence; cancer stem cell-like cells viability; inhibition, % at 7.5 µM; hit rate 1.1% among 300,000; AID 2717, 2010;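 active = mean at 75% or more and at least half the replicates too; inconclusive = mean and replicates disagree; tested in HMLE shEcad cells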;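 note: 0% = median of negative and 100% = median of positive control wells; the first replicate is given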
Yeast UUG start = modulators of yeast start codon fidelity, primary screen, whole organism, S. cerevisiae, single point, plate reader | S. cerevisiae UUG-firefly luciferase reporter, luminescence/redox ratio | activity score, % at 18.7 µM | hit rate 0.13% among 350,000;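 active = replicate mean at a twofold rise or more, about +100% in these data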;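 note: firefly luciferase made from a UUG start codon reports start codon fidelity; reporter light over untreated wells divided by growth signal over untreated wells; some hits fall short of that in this replicate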
Rce1 inhib = yeast Rce1p protease inhibitors, primary screen, biochemical, fluorescence, cell-free homogeneous; hit rate 0.27% among 290,000; calls only; CAAX prenyl protease 2 (Saccharomyces cerevisiae (strain ATCC 204508 / S288c)), Q03530; yeast membranes, quenched prenylated peptide cleavage fluorescence;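 active = fall in fluorescence gain of 50% or more versus controls, with final raw signal at or below 3038400; inconclusive = same 50% fall but final raw signal above 3038400; inactive = fall in fluorescence gain under 50%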;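 note: plate controls were neutral control wells for no effect and wells lacking membranes for full effect; tested at 10 µM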
Target sequence (Q03530 whole entry, looked up): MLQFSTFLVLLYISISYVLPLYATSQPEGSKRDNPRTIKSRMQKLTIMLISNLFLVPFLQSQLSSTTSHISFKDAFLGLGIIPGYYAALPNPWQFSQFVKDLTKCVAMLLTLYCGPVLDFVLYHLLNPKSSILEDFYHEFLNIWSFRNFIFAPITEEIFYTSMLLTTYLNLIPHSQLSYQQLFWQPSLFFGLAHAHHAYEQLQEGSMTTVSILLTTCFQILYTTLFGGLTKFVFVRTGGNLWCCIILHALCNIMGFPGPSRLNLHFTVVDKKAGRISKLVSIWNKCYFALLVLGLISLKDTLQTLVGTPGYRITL
PABP polyA inh = PABP poly(A) RNA binding inhibitors, primary screen, biochemical, fluorescence polarization, uHTS | inhibition, % at 35 µM | hit rate 1% among 290,000 | AID 2014, 2009 | Polyadenylate-binding protein 1 (Homo sapiens), P11940;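 active = 50% or more with normal probe brightness, or confirmed in later tests; inconclusive = above 50% with abnormal brightness, or retests that disagree; inactive = below 50% or failed in later tests; about a fifth of its hits are not listed in these tables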;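 note: calls also rest on retests at 20 µM and on dose response follow-up; controls were probe without protein and protein plus probe with vehicle; some compounds called inactive have numbers as strong as hits; many hits fall short of the cut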
MT1-MMP act inh = blockers of MT1-MMP proenzyme processing, primary screen, HT1080 RFP-PRO-GFP cells, GFP/RFP fluorescence. Matrix metalloproteinase-14 (Homo sapiens), P50281. GFP/RFP ratio fluorescence, overnight; percent of plate control window, DMSO zero. GFP/RFP ratio change, % at 20 µM. hit rate 0.061% among 360,000;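 active = GFP/RFP ratio change of at least 30% with cell ATP level not reduced by more than half and red fluorescence within 50% of control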; note: strong numbers were not always called active
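Assay system: HT1080 RFP-PRO-GFP cells. Benchmarks: DMSO vehicle wells and RFP-L50D-GFP reporter cell wells. Times: overnight cell settling, then overnight compound exposure, 37 °C, 5% CO2. Compound: 20 µM single dose, 1% DMSO. Read-out basis: GFP/RFP fluorescence ratio.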
eIF4H FP inh retest = also measured in eIF4H FP inh; calls as there; inhibition, %; compound at 20 µM; confirmation average;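 mean of two retest wells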
PABP polyA inh retest = second read-out of PABP polyA inh, no call of its own (marks repeat the call); inhibition, %; compound at 20 µM; confirmation repeats;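 mean of two retest wells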
MT1-MMP act inh RFP = second read-out of MT1-MMP act inh, no call of its own (marks repeat the call); RFP signal change, %; measured here: RFP expression control read;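 0 = vehicle wells; hits needed this value within 50% of zero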
An asterisk follows results filed as active; i = inactive; u = inconclusive; x = no result given; & = joins results of further samples. Not all compounds are listed; rates above refer to the full screens.

SMILES | eIF4H FP inh | HIV Env fusion | CSC inhib | Yeast UUG start | Rce1 inhib | PABP polyA inh | MT1-MMP act inh | MT1-MMP act inh RFP | others
CCc1ccc(/C=C2/SC(=S)N(CCC(=O)Nc3cccnc3)C2=O)cc1 | u | 3.9 | 0.3 | 1.5 | i | u | -4.4 | -0.4
CCN(CC)c1ccc(NC(=O)C2CCC(CNc3c(N4CCCC4)c(=O)c3=O)CC2)c(C)c1 (stereo not given) | -3.3 | 3.6 | -12.8 | -15.2 | i | 4.1 | -1.6 | -1.8
C=CCNC(=O)c1onc(CSc2ccc(F)cc2)c1C(=O)NCCOC | -5.0 | 30.5 | -1.7 | 28.6 | i | -1.5 | 7.0 | 3.9
CN(C)S(=O)(=O)c1ccc(C(=O)OCC(=O)NCc2ccccc2)cc1 | 3.0 | 21.5 | -2.0 | 1.6 | i | u | 1.2 | 3.7
COc1ccc(OCC(=O)NNC(=O)c2cccnc2)cc1 | 1.7 | 54.1 | -9.9 | -16.3 | i | 13.9 | -4.9 | 2.5
CCOC(=O)[C@@H]1[C@H]2COc3cc(OC)ccc3[C@@H]2N2C(=O)N(c3ccc(F)cc3)C(=O)[C@]12C | -4.3 | x | -11.4 | -9.8 | i | -5.9 | -8.0 | -0.5
CN(C(=O)c1cccc(NC(=O)Cc2cccc(NC(=O)C3CCN(C(=O)C4CCC4)CC3)c2)c1)C1CC1 | x | -16.7 | x | -5.6 | x | x | -1.3 | -0.6
Cc1ccc(CNC(=O)CN(C)S(=O)(=O)c2ccc3c(c2)n(C)c(=O)c(=O)n3C)cc1 | 8.1 | x | -17.5 | -38.9 | i | 0.7 | -2.4 | 2.8
CCCCN(C(C)=O)c1c(N)n(CCC)c(=O)n(CC(=O)Nc2cc(Cl)cc(Cl)c2)c1=O | -11.8 | -4.6 | -3.8 | x | i | -5.2 | -0.2 | 0.6
NS(=O)(=O)c1ccc(CCNC(=O)c2ccc(=O)[nH]c2)cc1 | -2.8 | -4.9 | 3.4 | -4.5 | i | -4.7 | 1.8 | 4.9
Cc1cc2ccccc2n1CCNC(=O)COc1ccc2ccccc2c1 | 21.0 | -80.9 | -11.2 | -15.6 | i | -8.5 | 30.8* | 33.5*
CCOc1ccc(NC(=S)N(CCc2c(C)[nH]c3ccccc23)Cc2cccnc2)cc1 | 5.0 | -57.7 | 12.4 | -5.1 | i | 3.5 | -0.6 | -3.7
COc1ccc(OC)c(CNc2ccc([N+](=O)[O-])cc2C)c1 | -9.3 | -18.5 | -3.2 | x | i | 3.8 | 4.7 | -0.5
Cc1onc(-c2ccccc2Cl)c1C(=O)N1CCN(C)CC1 | -19.2 | -6.5 | -12.2 | -7.2 | i | 0.5 | -3.4 | 3.9
COC(=O)c1c(NC(=O)CSc2nccn2C)sc(C)c1C | x | -8.8 | -16.1 | x | i | x | 2.5 | -1.0
CC1CCC(=NO)C(=NO)C1 (stereo not given) | x | 7.7 | x | -18.3 | x | x | 2.0 | 2.0
Cc1cc(=O)n(C)c2ccc(S(=O)(=O)N3CCOCC3)cc12 | 1.6 | 5.7 | -6.5 | -19.5 | i | 7.8 | 0.8 | 2.7
CCOc1ccc(NC(=O)Nc2ccc(Br)cn2)cc1 | -4.3 | -47.7 | -0.4 | x | x | 1.4 | 1.8 | -1.5
CC(=O)NC(c1ccccc1)c1nc(-c2ccc(F)c(Cl)c2)cs1 (stereo not given) | x | -21.4 | x | -13.2 | x | x | 1.0 | 1.1
COc1cc(N)c(Cl)cc1C(=O)OCC(=O)c1ccc2c(c1)NC(=O)CO2 | x | -7.6 | -1.7 | -14.8 | i | x | 1.5 | -0.3
CC(C)c1ccc(NC2CCCN(C(=O)CCN3Cc4ccccc4C3=O)C2)cc1 (stereo not given) | x | 21.6 | -6.7 | -12.9 | i | x | 2.2 | 2.4
C=CCc1ccccc1Oc1cc(OC)nc(N)n1 | x | -19.4 | x | -4.6 | x | x | -5.6 | -2.5
Cc1ccc(Nc2c(-c3ccccc3O)nc3ncccn23)cc1 | -3.3 | -6.9 | x | x | i | 2.8 | 8.6 | 7.6
COc1ccc(/C=N/N2C(=N)SCC2=O)cc1 | -2.9 | 48.4 | x | -1.8 | i | 2.3 | -1.4 | -1.8
Cn1ccnc1C(=O)c1cc(SCC(=O)NCc2ccccc2)nc2ccccc12 | 2.9 | 13.6 | -0.5 | x | i | -1.1 | -38.2 | -12.1

(list continues)
SMILES | eIF4H FP inh | HIV Env fusion | CSC inhib | Yeast UUG start | Rce1 inhib | PABP polyA inh | MT1-MMP act inh | MT1-MMP act inh RFP | others
Cc1ccc(-c2cnc3c(c2)C(=O)N([C@H](C)CO)C[C@H](C)[C@@H](CN(C)Cc2ccccc2F)O3)cc1 | x | -0.9 | x | 4.2&-5.4&2.3 | x | x | -3.6 | -1.4
O=C(CN(CC1CCCO1)C(=O)CCC(=O)Nc1nccs1)NCc1ccc2c(c1)OCO2 (stereo not given) | -2.7 | x | -6.1 | -14.4 | i | -0.5 | 1.2 | 4.8
CCC(C)N1C(=O)CN(C2CCCCCC2)C(=O)C1c1ccccc1F (stereo not given) | 9.9 | 17.2 | x | x | i | 3.3 | 0.1 | 4.7
Cc1nnc(SCC(=O)NC2CCCCC2)[nH]c1=O | 3.2 | 13.1 | -20.5 | -23.0 | i | 0.1 | -1.6 | 0.5
Cc1ccc(OCC(=O)N2CCN(C(=O)c3ccc([N+](=O)[O-])cc3)CC2)cc1 | -8.1 | -4.8 | 2.5 | x | i | -0.5 | -1.5 | -2.9
O=C(COc1ccc(Br)cc1CNC1CCCCC1)NCCc1ccccc1 | 0.2 | 22.8 | 4.9 | -12.4 | i | 4.1 | 3.2 | -15.9
Clc1ccc(CSc2nnc(-c3ccccn3)n2Cc2ccco2)cc1Cl | x | 3.1 | x | -11.8 | x | x | -1.5 | -9.2
CN1Cc2sc(N)c(C#N)c2CC1(C)C | u | x | -5.7 | x | i | u | -25.1 | 3.9
Cc1ccc(C(=O)C2=C(O)C(=O)N(Cc3cccnc3)C2c2cccc([N+](=O)[O-])c2)o1 (stereo not given) | 0.5 | 6.4 | -27.4 | -30.7 | i | 3.5 | 0.0 | 2.0
CCCCNC(=O)CS(=O)Cc1nc(-c2cccs2)oc1C (stereo not given) | 6.3 | x | -2.5 | -6.1 | i | 22.7 | -4.0 | 4.5
Cn1c(SCc2nc3ccccc3[nH]2)nnc1-c1ccccn1 | 2.6 | x | -1.8 | -20.6 | i | 1.1 | 0.9 | 3.6
CC(O)CSc1nc2c(c(=O)[nH]c(=O)n2C)n1Cc1ccccc1 (stereo not given) | -10.4 | 7.6 | -38.7 | -31.5 | i | -3.5 | 7.1 | 8.3
COC(=O)c1cccc(C23CC4(C2)[C@H](CN(Cc2ccc(C(F)(F)F)cc2)[C@@H]4c2ccccc2)C3c2ccccc2)c1 (stereo not given in full) | -13.2 | x | 10.3 | -7.4 | i | -17.1 | -8.1 | -28.1
COc1ccc2cc(C(=O)N3CCN(c4cccc(C)c4C)CC3)[nH]c2c1 | -10.2 | 20.1 | 15.6 | -19.2 | i | -0.4 | 6.1 | -0.4
COc1ccnc(Oc2ccccc2)c1C(=O)N/C=N/OCc1ccccc1F | 4.7 | 3.3 | -12.5 | x | i | 2.0 | 0.8 | 4.0
CCNC(=O)OCCC12CC3CC(CC(C3)C1)C2 | -11.6 | 17.4 | 1.4 | x | x | 89.0* | 4.5 | 1.2 | eIF4H FP inh retest=30.4;PABP polyA inh retest=67.4*
CN(Cc1ccccc1)Cc1nc2c(c(=O)n(C)c(=O)n2C)n1CCCc1ccccc1 | 4.0 | x | 3.4 | -3.0 | i | 3.0 | -2.5 | -1.6
O=C(NCCc1nnc2ccc(NCc3ccccc3Cl)nn12)c1ccccc1 | 1.1 | 6.3 | -18.4 | -17.9 | i | 5.3 | 0.5 | -0.4
Cc1ccnc(SCC(=O)c2cccc([N+](=O)[O-])c2)n1 | -4.0 | -7.6 | 7.2 | x | i | 15.3 | 1.7 | 1.8
O=C(O)CSCC(=O)NCc1ccc(Cl)cc1Cl | -2.4 | -0.3 | -6.8 | x | i | -7.8 | -7.1 | -0.7
C=CCN1C(=O)C(Cc2ccc(F)cc2)S/C1=N/N=C/c1cccs1 (stereo not given) | -5.1 | x | -7.5 | -13.6 | i | -10.2 | -1.5 | -4.2
COC(=O)c1cn(NC(=O)Cn2nc([N+](=O)[O-])c(Cl)c2C)c(=O)c2ccccc12 | -4.7 | 17.0 | 1.6 | -3.9 | i | 13.5 | 2.8 | 1.0
Cc1ccccc1OCCn1c(=O)oc2ccccc21 | -4.7 | x | x | -5.1 | i | -10.4 | 4.3 | -1.3
CCc1ccc(-n2nc3cc(C)c(N)cc3n2)cc1 | 23.0 | -154.2 | 1.7 | 13.6 | i | -0.3 | 0.2 | 0.8
O=c1nc2c(-c3cccc(Br)c3)n[nH]n2c2ccccc12 | 3.6 | -5.3 | 2.7 | 20.3 | i | 2.0 | -3.4 | -7.8

Remaining list, next part
SMILES | eIF4H FP inh | HIV Env fusion | CSC inhib | Yeast UUG start | Rce1 inhib | PABP polyA inh | MT1-MMP act inh | MT1-MMP act inh RFP | others
CCC(=O)Nc1ccc(S(=O)(=O)Nc2c(C)nc3nc[nH]n3c2=O)cc1 | 1.4 | 20.4 | -4.5 | -11.6 | i | -7.1 | -2.8 | 0.2
COc1ccc(Cl)cc1NC(=O)CN(C)C(=O)c1ccc(COc2ccccc2)cc1 | x | 5.0 | 27.2 | -13.6 | i | x | 4.3 | -2.9
O=C1N=c2ccccc2=C1c1sc(Nc2cccc(O)c2)nc1O | 59.0* | -4.3 | 2.2 | 10.8 | i | 20.2* | 3.7 | -1.7 | eIF4H FP inh retest=96.2*;PABP polyA inh retest=57.0*
CCOC(=O)CSc1cc(CS(=O)c2ccc(Cl)cc2)nc(-c2ccccc2)n1 (stereo not given) | -4.5 | x | x | -14.5 | i | -0.8 | -4.3 | -1.2
Cc1ccc(/C=N/Nc2ccc(C(=O)O)cc2)s1 | 48.1 | 63.7* | 11.3 | -76.1 | i | 6.4 | -8.3 | -0.4
CCN(CC)CCNC(=O)c1ccc(NC(=O)c2ccc(F)cc2)cc1 | 1.3 | 17.8 | -1.4 | x | i | 2.1 | -4.2 | 2.7
Cn1c(SCC(=O)O)nc2sc3c(c2c1=O)CCC3 | -8.5 | -32.4 | 10.1 | -15.2 | i | 5.6 | -0.2 | -2.3
CCn1c(SCc2c(F)cccc2Cl)nnc1-c1ccco1 | 10.6 | x | x | -27.1 | i | -2.5 | -1.4 | 1.4
Cc1cccc(OCC(=O)Nc2ccc(S(=O)(=O)Nc3ccccn3)cc2)c1 | -0.3 | 2.4 | -16.2 | x | i | -7.7 | 0.5 | 1.3
CC(C)(C)c1ccc(OC(=O)c2ccc3nsnc3c2)cc1 | -3.9 | 5.3 | -9.4 | -1.6 | i | -4.3 | -0.2 | 2.6

High-throughput results from PubChem BioAssay.
